Source: PubChem BioAssay (Broad Institute)
Vaccinia stage: Vaccinia orthopox stage-specific inhibition; Vaccinia-infected cells, mCherry/Venus stage reporter fluorescence; stronger effect = lower value; some inactives read as strong as hits; activity change (mCherry), % (no concentration beside the values); 89,000 compounds, 0.01% hits; AID 1053133;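 active means mCherry past -33% and 40 or more points under the early reporter, replicates agreeing; inconclusive means past -33% without that gap or agreement; tested in A549 cells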;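 further: scaled between vehicle wells and reference inhibitor wells; 23 nL library stock went into each well; one replicate is shown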
Vaccinia stage Venus: recorded beside Vaccinia stage, whose call it bears; activity change (Venus), %; measured here: Venus reporter, other viral stage;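 negative = less Venus signal; first of two replicates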
Numbers without * were called inactive; & = joins results of further samples. Not all compounds are listed; count on the stated rates, not on these rows.

Results for C[C@@H]1CN([C@@H](C)CO)S(=O)(=O)c2ccc(-c3cccc(C#N)c3)cc2O[C@@H]1CN(C)C(=O)c1cccnc1 ?
Vaccinia stage: 13.9; Vaccinia stage Venus: 3.9

Results for C[C@@H]1CN([C@H](C)CO)C(=O)c2cc(NC(=O)Nc3ccc4c(c3)OCO4)ccc2O[C@@H]1CN(C)S(=O)(=O)c1ccc(F)cc1 ?
Vaccinia stage: -20.8; Vaccinia stage Venus: -15.2

Results for C[C@@H]1CN([C@H](C)CO)C(=O)c2cc(NS(C)(=O)=O)ccc2O[C@@H]1CN(C)Cc1ccncc1 ?
Vaccinia stage: 16.0; Vaccinia stage Venus: 9.0

Results for C[C@@H]1CN([C@H](C)CO)C(=O)c2cc(NS(=O)(=O)c3ccc(Cl)cc3)ccc2O[C@@H]1CN(C)Cc1ccc(C(=O)O)cc1 ?
Vaccinia stage: 34.5; Vaccinia stage Venus: 17.2

How did COc1ccccc1-c1ccc2c(c1)O[C@H](CN(C)C(=O)Nc1cccc(F)c1)[C@@H](C)CN([C@H](C)CO)S2(=O)=O do in these assays?
Vaccinia stage: -30.0; Vaccinia stage Venus: -21.3

Results for CNC[C@H]1Oc2ccc(NC(=O)NC(C)C)cc2CC(=O)N([C@@H](C)CO)C[C@@H]1C ?
Vaccinia stage: -5.7; Vaccinia stage Venus: -8.8

What do the screens show for `C[C@H](O)C#Cc1ccc2c(c1)O[C@H](CN(C)Cc1ccncc1)[C@@H](C)CN([C@H](C)CO)S2(=O)=O`?
Vaccinia stage: -17.9; Vaccinia stage Venus: -18.9

How did CNC[C@H]1Oc2cc(C#CC3CCCC3)ccc2S(=O)(=O)N([C@H](C)CO)C[C@H]1C do in these assays?
Vaccinia stage: inconclusive

What do the screens show for `CC(=O)N1CC2(C1)[C@@H](c1ccc(-c3ccc(C#N)cc3)cc1)[C@@H](CO)N2C(=O)C1CC1`?
Vaccinia stage: 1.7; Vaccinia stage Venus: 1.5

What do the screens show for `Cc1cccc(-c2ccc([C@@H]3[C@@H](CO)N4CCCCN(S(=O)(=O)c5cccc(C)c5)C[C@H]34)cc2)c1`?
Vaccinia stage: 6.1; Vaccinia stage Venus: -9.0

What do the screens show for `COC(=O)[C@H]1[C@H](CO)[C@H]2Cn3c(cccc3=O)[C@H]2N1C(=O)C1CCCC1`?
Vaccinia stage: 1.7; Vaccinia stage Venus: 2.0

How did COCC(=O)N1[C@@H]2c3cccc(=O)n3C[C@@H]2[C@@H](CO)[C@@H]1C(=O)NCc1ccccc1F do in these assays?
Vaccinia stage: -0.4; Vaccinia stage Venus: -4.2

How did CNC[C@@H]1OCCCC[C@H](C)Oc2ccc(NC(=O)NC3CCCCC3)cc2C(=O)N([C@@H](C)CO)C[C@@H]1C do in these assays?
Vaccinia stage: -4.9; Vaccinia stage Venus: -0.7

Results for COc1ccccc1NC(=O)N(C)C[C@@H]1Oc2ncc(Br)cc2C(=O)N([C@H](C)CO)C[C@H]1C ?
Vaccinia stage: 4.5; Vaccinia stage Venus: -0.2

Results for C[C@H](CO)N1C[C@H](C)[C@@H](CN(C)C(=O)c2cccnc2)Oc2cc(/C=C/c3ccccc3)ccc2S1(=O)=O ?
Vaccinia stage: -14.1; Vaccinia stage Venus: -8.3

Results for CO[C@@H]1CN(C)C(=O)c2cc(NS(=O)(=O)Cc3ccccc3)ccc2OC[C@H](C)NC[C@H]1C ?
Vaccinia stage: -2.3; Vaccinia stage Venus: 3.5

How did COc1ccc(NC(=O)Nc2ccc3c(c2)C(=O)N([C@@H](C)CO)C[C@@H](C)[C@H](CN(C)C(=O)Nc2ccccc2)OCCCC[C@H](C)O3)cc1 do in these assays?
Vaccinia stage: 6.2; Vaccinia stage Venus: 9.6

Results for C[C@H]1CN([C@@H](C)CO)C(=O)Cc2cc(NC(=O)Cc3cn(C)c4ccccc34)ccc2O[C@@H]1CN(C)Cc1ccncc1 ?
Vaccinia stage: 20.3; Vaccinia stage Venus: 12.2

What do the screens show for `C[C@H](CO)N1C[C@H](C)[C@@H](CN(C)Cc2ccc(Cl)c(Cl)c2)Oc2ccc(NC(=O)Nc3ccc(C(F)(F)F)cc3)cc2C1=O`?
Vaccinia stage: -19.0; Vaccinia stage Venus: -12.4

Results for Cc1noc(C)c1S(=O)(=O)Nc1ccc2c(c1)C(=O)N([C@H](C)CO)C[C@@H](C)[C@@H](CN(C)C(=O)Nc1ccc(C(F)(F)F)cc1)O2 ?
Vaccinia stage: -15.0; Vaccinia stage Venus: -16.5

3 structures from above, ordered by length of the SMILES, smallest number first.
What do the screens show for `COC(=O)[C@H]1[C@H](CO)[C@H]2Cn3c(cccc3=O)[C@H]2N1C(=O)C1CCCC1`?
Vaccinia stage: 1.7; Vaccinia stage Venus: 2.0

Results for COc1ccccc1NC(=O)N(C)C[C@@H]1Oc2ncc(Br)cc2C(=O)N([C@H](C)CO)C[C@H]1C ?
Vaccinia stage: 4.5; Vaccinia stage Venus: -0.2

Results for C[C@H]1CN([C@@H](C)CO)C(=O)Cc2cc(NC(=O)Cc3cn(C)c4ccccc34)ccc2O[C@@H]1CN(C)Cc1ccncc1 ?
Vaccinia stage: 20.3; Vaccinia stage Venus: 12.2

Additional structures.
What do the screens show for `CO[C@H]1CN(C)C(=O)c2cc(NS(=O)(=O)c3ccccc3)ccc2OC[C@@H](C)N(C)C[C@H]1C`?
Vaccinia stage: 7.7; Vaccinia stage Venus: 3.6

What do the screens show for `C[C@@H]1CN([C@H](C)CO)C(=O)Cc2cc(NC(=O)CCCCCC(=O)Nc3ccccc3N)ccc2O[C@@H]1CN(C)C(=O)Nc1ccc2c(c1)OCO2`?
Vaccinia stage: 5.3; Vaccinia stage Venus: 0.2

What do the screens show for `C[C@@H]1CN([C@H](C)CO)C(=O)c2cc(NS(=O)(=O)c3cn(C)cn3)ccc2O[C@@H]1CN(C)C(=O)Nc1ccc(C(F)(F)F)cc1`?
Vaccinia stage: 4.0; Vaccinia stage Venus: -0.1

Results for C[C@@H]1CCCCO[C@@H](CN(C)C(=O)CCC(F)(F)F)[C@@H](C)CN([C@@H](C)CO)C(=O)c2cc(NC(=O)Nc3ccc4c(c3)OCO4)ccc2O1 ?
Vaccinia stage: 25.9; Vaccinia stage Venus: 9.1

How did C[C@H]1CN([C@@H](C)CO)C(=O)c2cc(NC(=O)c3ccncc3)ccc2O[C@H]1CN(C)S(=O)(=O)c1ccccc1 do in these assays?
Vaccinia stage: 12.5; Vaccinia stage Venus: 7.1

How did C[C@@H]1CN([C@H](C)CO)C(=O)Cc2cc(NC(=O)Cc3ccccc3)ccc2O[C@@H]1CN(C)Cc1ccc(C(=O)O)cc1 do in these assays?
Vaccinia stage: -1.8; Vaccinia stage Venus: 9.9

Results for C[C@H](CO)N1C[C@H](C)[C@H](CN(C)C(=O)Cc2ccccc2)OCc2cnnn2CCCC1=O ?
Vaccinia stage: 19.8&11.8; Vaccinia stage Venus: 16.0&7.3

What do the screens show for `C[C@@H]1CN([C@H](C)CO)C(=O)c2ccccc2-c2ccccc2CO[C@@H]1CN(C)S(=O)(=O)c1ccc(Cl)cc1`?
Vaccinia stage: inconclusive

What do the screens show for `C[C@H]1CN([C@@H](C)CO)C(=O)c2cccc(NC(=O)Nc3ccc4c(c3)OCO4)c2O[C@@H]1CN(C)CC1CCCCC1`?
Vaccinia stage: -17.8; Vaccinia stage Venus: -11.9

What do the screens show for `C[C@H](CO)N1C[C@H](C)[C@H](CN(C)S(C)(=O)=O)Oc2c(NC(=O)C3CCCCC3)cccc2C1=O`?
Vaccinia stage: 14.3; Vaccinia stage Venus: 15.3

Results for CO[C@@H]1CN(C)C(=O)c2cc(NC(C)=O)ccc2OC[C@@H](C)N(C(=O)C2CC2)C[C@@H]1C ?
Vaccinia stage: 3.7; Vaccinia stage Venus: 6.7

How did CCCNC(=O)[C@@H]1[C@@H](CO)[C@@H]2Cn3c(ccc(-c4ccccc4F)c3=O)[C@@H]2N1C(=O)C1CCC1 do in these assays?
Vaccinia stage: 27.7; Vaccinia stage Venus: 4.0

How did CCCNC(=O)C[C@@H]1CC[C@@H]2[C@@H](COc3ccc(NC(=O)c4cccc(C(F)(F)F)c4)cc3C(=O)N2C)O1 do in these assays?
Vaccinia stage: -8.8; Vaccinia stage Venus: -7.5

What do the screens show for `COCC#Cc1ccc2c(c1)O[C@H](CN(C)Cc1cccnc1)[C@@H](C)CN([C@H](C)CO)S2(=O)=O`?
Vaccinia stage: 0.0; Vaccinia stage Venus: -9.2

How did C[C@H](CO)N1C[C@H](C)[C@@H](CN(C)CC2CCCCC2)Oc2ccc(NC(=O)C3CCCCC3)cc2C1=O do in these assays?
Vaccinia stage: -9.5; Vaccinia stage Venus: 0.9

What do the screens show for `CNC[C@H]1Oc2ccc(NC(=O)C3CC3)cc2CC(=O)N([C@@H](C)CO)C[C@@H]1C`?
Vaccinia stage: 1.0; Vaccinia stage Venus: -2.7

Results for Cc1noc(C)c1S(=O)(=O)N(C)C[C@H]1Oc2ccc(NC(=O)NC3CCCCC3)cc2CC(=O)N([C@H](C)CO)C[C@H]1C ?
Vaccinia stage: 11.7; Vaccinia stage Venus: 8.1

What do the screens show for `O=C(NCCc1ccccc1)[C@@H]1[C@@H](CO)[C@@H]2Cn3c(cccc3=O)[C@H]1N2Cc1ccccn1`?
Vaccinia stage: -1.0; Vaccinia stage Venus: 8.6

Results for COc1ccc(S(=O)(=O)Nc2ccc3c(c2)C(=O)N([C@H](C)CO)C[C@@H](C)[C@H](CN(C)S(=O)(=O)c2cn(C)cn2)O3)cc1 ?
Vaccinia stage: -1.0; Vaccinia stage Venus: 8.2

Results for O=C(Nc1ccc(F)cc1)N1CCCCN2[C@H](C1)[C@H](c1ccc(C#CC3CC3)cc1)[C@@H]2CO ?
Vaccinia stage: inconclusive

How did C[C@@H]1CN([C@H](C)CO)C(=O)c2cc(NC(=O)Cn3cnnn3)ccc2O[C@@H]1CN(C)C(=O)NC1CCCCC1 do in these assays?
Vaccinia stage: 1.8; Vaccinia stage Venus: -0.4

Results for C[C@@H]1CN([C@@H](C)CO)C(=O)CCCn2nncc2CO[C@@H]1CN(C)S(=O)(=O)c1cccc(F)c1 ?
Vaccinia stage: 6.3; Vaccinia stage Venus: -6.0

How did C[C@H]1CN([C@@H](C)CO)S(=O)(=O)c2ccc(-c3cccc(C#N)c3)cc2O[C@H]1CN(C)Cc1ccccn1 do in these assays?
Vaccinia stage: 11.0; Vaccinia stage Venus: 6.4

How did C[C@@H]1CCCCO[C@@H](CN(C)CC2CCCCC2)[C@H](C)CN([C@@H](C)CO)C(=O)c2cc(NC(=O)CCCCCC(=O)Nc3ccccc3N)ccc2O1 do in these assays?
Vaccinia stage: 27.3; Vaccinia stage Venus: 19.9

How did O=C(C[C@H]1C[C@@H]2c3cc(NC(=O)C4CCOCC4)ccc3O[C@@H]2[C@@H](CO)O1)NCc1ccccc1 do in these assays?
Vaccinia stage: 19.5; Vaccinia stage Venus: 13.5

What do the screens show for `C[C@@H]1CN([C@H](C)CO)C(=O)Cc2cc(NC(=O)Cn3cnnn3)ccc2O[C@H]1CN(C)C(=O)Nc1ccc2c(c1)OCO2`?
Vaccinia stage: 2.7; Vaccinia stage Venus: 0.5

What do the screens show for `Cc1ccc(S(=O)(=O)N(C)C[C@@H]2Oc3ccc(NC(=O)CCCCCC(=O)Nc4ccccc4N)cc3CC(=O)N([C@H](C)CO)C[C@@H]2C)cc1`?
Vaccinia stage: 19.2; Vaccinia stage Venus: 12.2

How did COc1ccccc1-c1ccccc1[C@H]1[C@@H](CO)N(C(=O)C2CCOCC2)[C@H]1C#N do in these assays?
Vaccinia stage: -5.1; Vaccinia stage Venus: -2.5

How did C[C@H](CO)N1C[C@H](C)[C@H](CN(C)C(=O)Nc2cccc(F)c2)Oc2ncc(C3=CCCCC3)cc2C1=O do in these assays?
Vaccinia stage: inconclusive

Results for C[C@@H]1CN([C@H](C)CO)C(=O)c2cc(NC(=O)Nc3ccc(F)cc3)ccc2O[C@@H](C)CCCCO[C@H]1CN(C)S(=O)(=O)c1cccs1 ?
Vaccinia stage: -11.0; Vaccinia stage Venus: 4.5

Structures shown so far that have two or more sulfur atoms, in the order listed:
Results for COc1ccc(S(=O)(=O)Nc2ccc3c(c2)C(=O)N([C@H](C)CO)C[C@@H](C)[C@H](CN(C)S(=O)(=O)c2cn(C)cn2)O3)cc1 ?
Vaccinia stage: -1.0; Vaccinia stage Venus: 8.2

Results for C[C@@H]1CN([C@H](C)CO)C(=O)c2cc(NC(=O)Nc3ccc(F)cc3)ccc2O[C@@H](C)CCCCO[C@H]1CN(C)S(=O)(=O)c1cccs1 ?
Vaccinia stage: -11.0; Vaccinia stage Venus: 4.5

(next part)
Results for CO[C@H]1CN(C)C(=O)c2cc(NC(=O)C3CCOCC3)ccc2OC[C@@H](C)N(C(C)=O)C[C@@H]1C ?
Vaccinia stage: -3.0; Vaccinia stage Venus: 14.2

How did C[C@H](CO)N1C[C@H](C)[C@@H](CN(C)CC2CCCC2)Oc2ncc(-c3ccc(F)cc3)cc2C1=O do in these assays?
Vaccinia stage: -31.4; Vaccinia stage Venus: -26.5

Results for C[C@H](CO)N1C[C@H](C)[C@@H](CN(C)C(=O)C2CCC2)Oc2ncc(-c3ccc(F)cc3)cc2C1=O ?
Vaccinia stage: 14.2; Vaccinia stage Venus: 7.0

How did COc1ccc2c3c(n(C)c2c1)[C@@H](CO)N(C(=O)C1CCC1)CC31CCN(C(=O)c2ccncc2)CC1 do in these assays?
Vaccinia stage: 5.4; Vaccinia stage Venus: -0.2

How did C[C@@H]1CN([C@H](C)CO)C(=O)c2cc(-c3ccncc3)cnc2O[C@H]1CN(C)C(=O)c1ccccc1F do in these assays?
Vaccinia stage: 5.8; Vaccinia stage Venus: 4.6

How did COc1ccc(NC(=O)N(C)C[C@@H]2OCCCC[C@H](C)Oc3ccc(NC(=O)NC(C)C)cc3C(=O)N([C@@H](C)CO)C[C@@H]2C)cc1 do in these assays?
Vaccinia stage: 22.3; Vaccinia stage Venus: 22.4

Results for Cc1ccc(S(=O)(=O)Nc2ccc3c(c2)C(=O)N([C@H](C)CO)C[C@@H](C)[C@H](CN(C)Cc2ccc(Cl)c(Cl)c2)OCCCC[C@@H](C)O3)cc1 ?
Vaccinia stage: inconclusive
